HSD17B inh = inhibitors of human HSD17B10 dehydrogenase; recombinant HSD17B10, NADH fluorescence kinetic; many of its hits are not listed in these tables; Q99714; Potency, µM (doses to about 57.1 µM), for the others: at the top dose activity change, negative = inhibition, usual class: inhibitors; 75,000 compounds, 7.6% hits; active = well fitted inhibition curve with a large enough effect; inconclusive = small, poorly fitted or top-dose-only effect; inactive = no such curve, though single readings can be large or run the other way;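 also: the protocol describes HADH2 (HSD17B10) and not the HSD17B4 of the title; nearly all actives have a fitted effect of over 70% in size; most hits overshoot -100% by far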
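Activity followed as NADH fluorescence increase (ex 360, em 450 nm) every 30 seconds for 4 min, using final 90 uM beta-hydroxybutyryl CoA and 1 mM NAD+. Recombinant His-tagged enzyme, 20 nM, pH 9.0 Tris buffer, 15 min compound preincubation.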
Starred values were filed as active, the others as inactive; i = inactive; ? = inconclusive; [ ] = another dose, or the depositor's remark. % is scaled to controls: 0 for no effect and ±100 for the full control effect; potency is read from the fitted curve at half-maximal effect.

SMILES | HSD17B inh
Nc1sc2c(c1C(=O)NC1CCS(=O)(=O)C1)CCCC2 (stereo not drawn) | 25µM*
CCCN1CC=C2C(C#N)=C(N)C(C#N)(C#N)C(c3cc(OC)ccc3OC)C2C1 (stereo not drawn) | -7%
Cc1ccc(CN2C(=O)CCC2C(=O)NCCCN2CCOCC2)cc1 (stereo not drawn) | -1%
Cc1cc(C)nc(SCC(=O)N2CCC(C(N)=O)CC2)n1 | -8%
CCOc1ccccc1N1CC(C(=O)Nc2ccccc2N2CCOCC2)CC1=O (stereo not drawn) | 8%
CCCSc1nc2c(cnn2-c2ccc(F)cc2)c(=O)[nH]1 | 9%
O=C(CN1CCOCC1)Nc1cc(Cl)ccc1Cl | 4%
Cc1cccc(-n2c(CNC(=O)c3ccc(S(=O)(=O)N4CCCC4)cc3)n[nH]c2=S)c1 | -3%
CCn1cc(C(=O)Nn2cnnc2)c(=O)c2ccc(C)nc21 | -7%
CCN(CCCNC(=O)CCNC(=O)Cn1cnc2ccccc2c1=O)c1ccccc1 | -8%
COCCOC(=O)c1c(C)oc2ccc(NS(=O)(=O)c3ccc(F)cc3)cc12 | 5%
CCCC(CCC)n1[nH]c(=O)c2c(C)cc(C)nc21 | -7%
Cc1ccc2nc(-c3ccccc3)cc(C(=O)O)c2c1 | -22%
CC1(C)CC(=O)C2=C(C1)Oc1ncn(CCCO)c(=N)c1C2c1ccccc1 (stereo not drawn) | 3%
CCOC(=O)C1=C(C)N=C2SCCC(=O)N2C1c1ccc(C(=O)OC)cc1 (stereo not drawn) | -1%
CCS(=O)(=O)N1CCC(C(=O)NCCCN2CCN(c3ccccc3F)CC2)CC1 | 13%
CCOC(=O)Nc1ccc2c(c1)N(C(=O)OC)c1ccccc1CC2 | -1%
Cc1ccc(-n2c(Cc3cccn3C)nnc2SCC(=O)Nc2nnc(C)s2)cc1 | -9%
Cc1ccccc1CS(=O)(=O)CCC(=O)NCCN1CCN(c2cccc(Cl)c2)CC1 | 0%
CCOc1ccc(C(c2nnnn2Cc2ccccc2)N2CCN(C(=O)c3ccco3)CC2)cc1 (stereo not drawn) | -5%
COc1ccc(/C=C/C(=O)c2ccccc2O)cc1 | 0%[11.4 µM]
c1ccc(OCCOc2ncnc3ccccc23)cc1 | -9%
CCS(=O)(=O)/N=C(\N)c1ccccc1 | 9%
C=CCn1c(SCC(=O)Nc2ccc(C(=O)OCC)cc2)nnc1-c1cccs1 | 157%[activator]
C/C(N)=C(/C#N)C(=O)CSc1nnc(Nc2cccc(C)c2C)s1 | -8%

Look-ups from the entries so far.
In HSD17B inh, Cc1ccccc1CS(=O)(=O)CCC(=O)NCCN1CCN(c2cccc(Cl)c2)CC1 has 0%
In HSD17B inh, Cc1ccc(CN2C(=O)CCC2C(=O)NCCCN2CCOCC2)cc1 (stereo not drawn) has -1%

Additional results
SMILES | HSD17B inh
CC1COC2C(O1)N(S(C)(=O)=O)CCN2S(C)(=O)=O (stereo not drawn) | 0%
Cn1c2ccccc2c2ncn(Cc3ccco3)c(=O)c21 | 25µM*
COC(=O)c1ccc(Cn2cnc3c(cnn3-c3ccc(Cl)cc3)c2=O)o1 | ?
CN(C)C(=O)CSc1nnc2sc3ccccc3n12 | 0%
O=C(Nc1ccc(S(=O)(=O)NC2CCCCC2)cc1)c1ccc(Br)o1 | 7%
Cc1nn(-c2cc(N3CCOCC3)ccc2N)c(=O)c2ccccc12 | 2%
CC(C)C[C@H](NC(=O)OC(C)(C)C)c1nnc(SCc2cccc(F)c2)o1 | -12%
Cc1cccc(CNc2ncncc2-c2ccccc2C(F)(F)F)c1 | ?
CCCn1c(SCC(=O)Nc2c(C)cccc2C)nnc1C(C)C | -1%
CC(=O)c1c(C)[nH]c(C(=O)N2CCc3ccccc32)c1C | 3%
CCOC(=O)Cn1c(=O)oc2cc(S(=O)(=O)N3CCCc4ccccc43)ccc21 | -2%
O=S(=O)(NCCOC12CC3CC(CC(C3)C1)C2)c1cccc2nsnc12 | -6%
CN1CCN(c2ccc(C(=O)c3ccc(F)cc3)cc2)CC1 | -17%
COc1ccc(C2/C(=C(\O)c3ccc(OC)c(Cl)c3)C(=O)C(=O)N2CCN(C)C)cc1 (stereo not drawn) | -9%
OC(c1ccccn1)c1c[nH]c2ccccc12 (stereo not drawn) | -1%
COCCN1C(=O)c2ccc(C(=O)Nc3nccs3)cc2C1=O | -9%
O=C(NCCSCc1ccccc1)c1cc(S(=O)(=O)N2CCOCC2)ccc1F | 1%
O=S(=O)(Nc1ccc(N2CCCCC2)cc1)c1cccs1 | 1%
COc1ccc(C(C)(C)C)cc1NC(=O)C1CC=CCC1C(=O)O (stereo not drawn) | -2%
CCOC(=O)N1CCN(C(=O)Cc2ccc(C)cc2)CC1 | 8%
CC1(C)C(=O)NCCN1C(=O)CSc1nccc(-c2ccc(Br)cc2)n1 | -6%
CCOC(=O)CSc1nnc(NC(=O)c2cccc(S(=O)(=O)N3CCCCC3)c2)s1 | 6%
N#CCc1nc(CSc2nc3ccccc3s2)cs1 | -9%
Cc1ccc(C2/C(=C(\O)c3c(C)nc4ccccn34)C(=O)C(=O)N2CCCN2CCOCC2)o1 (stereo not drawn) | -15%
O=C(OCCN1C(=O)c2ccccc2C1=O)c1cc2ccccc2o1 | 7%

Given with tabs: part of the list above
Compound	HSD17B inh
CCCn1c(SCC(=O)Nc2c(C)cccc2C)nnc1C(C)C	-1%
CC(=O)c1c(C)[nH]c(C(=O)N2CCc3ccccc32)c1C	3%

Additional compounds
SMILES | HSD17B inh
COc1cc2[nH]c(=S)n(C3CCCC3)c(=O)c2cc1OC | -9%
NC(N)=N[C@H](CC(=O)O)c1ccccc1 | 1%[11.4 µM]
Cc1ccc(C)c(N2CCN(S(=O)(=O)c3c(C)noc3/C=C/N(C)C)CC2)c1 | -9%
O=C1O[C@H](CN2CCOCC2)CN1/N=C\c1ccc([N+](=O)[O-])o1 | -8%[25.6 µM]
NC(=O)C[C@H](NC(=O)Cc1ccc(O)cc1O)C(=O)O | -4%
CCCCNC(=O)C(c1ccc(OCC(=O)OC)c(C(=O)OC)c1)N(CCOC)C(=O)CCCCCN1C(=O)NC(c2ccc(-c3ccccc3)cc2)C(C(=O)OCc2ccccc2)=C1C (stereo not drawn) | 14%
COC(=O)/C=c1/sc2n(c1=O)CCN=2 | 32µM*
Cc1cc(C(=O)CSc2n[nH]c(N)n2)c(C)n1-c1cccc(F)c1 | -9%
Cc1cc(C)nc(/N=C2\NC(=O)CC(C(=O)O)N2c2ccc(Cl)cc2)n1 (stereo not drawn) | 13%
O=S(=O)(c1ccccc1)c1nc(-c2cccs2)oc1NCCCn1ccnc1 | 2%
CC(C)Oc1nc(-c2ccccc2O)nc2ccccc12 | 3%
Cc1ccccc1-n1c(=O)cc(NCc2ccc3c(c2)OCO3)[nH]c1=O | -8%
CC(=O)c1c(C)nn(C(=O)N2CCOCC2)c1C | 15%
CC1=C2[C@@H]([C@H](C)CC[C@H]2/C=C(\C)C(=O)O)[C@H](O)C1 | -9%
Cn1cccc1C(=O)N1CCC2(CC1)CCN(c1ccncc1)CC2 | 8%
COc1ccc(NC(=O)CN2CCC3(O)CCCCC3C2c2cc(OC)ccc2OC)cc1 (stereo not drawn) | -4%
CSc1cccc(NC(=O)C2CCCN(S(=O)(=O)c3cnc[nH]3)C2)c1 (stereo not drawn) | 7%
Clc1ccc(C2CC(c3cccs3)n3ncnc3N2)cc1Cl (stereo not drawn) | 3%
CS(=O)(=O)N1CCC2(CCCN(Cc3ccccc3)C2)CC1 | 6%
COC(=O)N1CCN(S(=O)(=O)c2ccc(F)cc2)CC1 | 9%
c1ccc(-c2csc(Nc3cccnc3)n2)nc1 | 8%
Cc1cc(N2CCOCC2)nc2ccc(Cc3ccc4nc(N5CCOCC5)cc(C)c4c3)cc12 | -8%[11.4 µM]
Cn1c(=O)c(-c2cccc(Cl)c2)nc2cncnc21 | ?
Cn1c(=O)c2cc(S(=O)(=O)NCCC(=O)NC3CCCCCCC3)ccc2n(C)c1=O | 0%
CN1C(=O)c2ccc(N3CCCC3)cc2C1=O | 252%[activator]

Fetched by structure from the list above:
SMILES | HSD17B inh
COc1cc2[nH]c(=S)n(C3CCCC3)c(=O)c2cc1OC | -9%
CC(C)Oc1nc(-c2ccccc2O)nc2ccccc12 | 3%

Other results follow:
SMILES | HSD17B inh
O=C(Cn1c(=O)n(-c2ccccc2)c(=O)c2sccc21)N1CCCC1 | 5%
O=c1[nH]c(CSc2nc3ccccc3o2)nc2c1cnn2-c1ccccc1 | -30%
CCC1=C(OC(=O)N(CC)CC)N2C(=O)OC(=NCc3ccccc3)[C@]2(C)[C@H]2C1=CC[C@H]1C(=O)N(c3ccccc3)C(=O)[C@H]12 | 1%
CN(C)Cc1ccccc1-c1ccc2ncnc(NC3CCNCC3)c2c1 | 5%
CC[C@@H](C)[C@H](NC(=O)C1CCN(C(=O)[C@@H](NS(=O)(=O)c2ccc(C)cc2)C(C)C)CC1)C(=O)O | 14%
Cc1c(C(=O)NCc2cccnc2)sc2nc(-c3ccc(F)cc3)cn12 | 11%
N#Cc1nc(-c2cccs2)oc1NCc1ccc(Cl)cc1 | 32µM*
COCCNC(=O)CSc1nc2ccccc2c2nc(C)nn12 | 8%
CCCCCCC#Cc1cc(OC)c(OC)cc1C(N1CC(C)c2ccccc21)N1CC(C)c2ccccc21 (stereo not drawn) | -24%[11.4 µM]
CCOc1ccc(N2C(=O)CC(NCc3ccc(F)cc3)C2=O)cc1 (stereo not drawn) | 1%
CCC1=C(OC(=O)N(CC)CC)N2C(=O)OC(=NCC3CC3)[C@]2(Cc2ccccc2)[C@H]2C1=CC[C@H]1C(=O)N(CC(=O)OC)C(=O)[C@H]12 | 6%
O=C(Nc1ccccc1Cl)N1CCN(c2ccccn2)CC1 | i
N#Cc1cccc(NC(=O)N2CC3(CCN(C(=O)c4cccc(F)c4)CC3)C2)c1 | 5%
COC(=O)C1=C(C)NC(=O)C1(Nc1ccc(Cl)cn1)C(F)(F)F (stereo not drawn) | 6%
O=C(c1cnn2c(C(F)F)cc(C3CC3)nc12)N1CCOCC1 | -3%
COc1nc(Nc2nc3ccccc3c(=O)[nH]2)nc2ccc(C)cc12 | -5%
COc1cc(C(C)=O)ccc1OC(=O)C(C)N1C(=O)c2ccccc2C1=O (stereo not drawn) | -3%
CC1CC(=O)N(CC(=O)N2CCCC2)c2ccccc2S1 (stereo not drawn) | 8%
CCOC(=O)N1CCN(C(=O)CN(c2ccccc2OC)S(=O)(=O)c2ccc(C)cc2)CC1 | 7%
COc1cc(C2C(C#N)=C(N)OC3=C2C(=O)CC(C)(C)C3)ccc1OC(=O)N1CCOCC1 (stereo not drawn) | 1%
CN1CCN(c2ncc3ncc(=O)n(C4CC4)c3n2)CC1 | ?
C=CCSc1[nH]c(=O)cc(C)c1C(N)=O | 5%
CCCCNC(=O)CSc1nnc(NC(C)=O)s1 | -5%
Cc1csc2ncc(C(=O)Nc3cccc(C(F)(F)F)c3)c(=O)n12 | ?
Cc1ccc(S(=O)(=O)N(C)CC(=O)N2CCCc3ccccc32)cc1 | 10%

Part of the list above, set out differently:
smiles	HSD17B inh
Cc1c(C(=O)NCc2cccnc2)sc2nc(-c3ccc(F)cc3)cn12	11%
N#Cc1nc(-c2cccs2)oc1NCc1ccc(Cl)cc1	32µM*
COCCNC(=O)CSc1nc2ccccc2c2nc(C)nn12	8%
CCCCCCC#Cc1cc(OC)c(OC)cc1C(N1CC(C)c2ccccc21)N1CC(C)c2ccccc21 (stereo not drawn)	-24%[11.4 µM]

Next part.
SMILES | HSD17B inh
NCCCCC(N)C(=O)NC(Cc1ccc(O)cc1)C(=O)NC(CCCCN)C(=O)O (stereo not drawn) | 3%
O=C(N/N=C1/C[C@@H](O)[C@@H](O)[C@@H]2[C@@H]3C(=O)N(c4cccc(Oc5ccccc5)c4)C(=O)[C@H]3CC[C@H]12)OCc1ccccc1 | 0%[11.4 µM]
Cn1c2c(c(=O)n(C)c1=O)CN(CC1CCCO1)CN2 (stereo not drawn) | 6%
NC(=O)c1cc[n+](CC2=C(C(=O)O)N3C(=O)[C@@H](NC(=O)[C@H](c4ccccc4)S(=O)(=O)[O-])[C@@H]3SC2)cc1 | -25%[25.6 µM]
COCCNC(=O)CN(c1cc(C(F)(F)F)ccc1Cl)S(C)(=O)=O | -3%
COc1ccc(N2Cc3cccc(C(=O)N4CCOCC4)c3C2=O)cc1 | -3%
Cc1c(Br)c(C(F)(F)F)nn1CC(=O)NCCN1CCOCC1 | 7%
O=C(c1ccccc1)N1CCN(C(=O)C23CC4CC(CC(C4)C2)C3)CC1 | -2%
Cc1onc(-c2c(F)cccc2Cl)c1C(=O)NCCc1ccc(S(N)(=O)=O)cc1 | 3%
Cc1cc(Cl)c(S(N)(=O)=O)cc1OCC(N)=O | 4%
O=C(NC1CCCC1)C(NS(=O)(=O)c1cccc2nsnc12)c1ccccc1 (stereo not drawn) | -11%
COc1cc(C(=O)OCC(=O)Nc2c(F)c(F)c(F)c(F)c2F)cc(OC)c1OC | -2%
CC(=O)c1c(C)[nH]c(C(=O)NCc2cccs2)c1C | -1%
Cc1cc(C)cc(N(CC(=O)N2CCn3c2nc2ccccc23)S(=O)(=O)c2c(C)noc2C)c1 | 10%
CC(C)n1c(=S)[nH]c2c1c(=O)[nH]c(=O)n2C | -17%
CCOC(=O)c1[nH]c2cc(OC)c(OC)cc2c1NC(=O)c1nonc1C | 6%
COC(=O)CC1C(C)(C)C(OC(C)=O)C2[C@H](OC(C)=O)[C@]34O[C@]2(O)[C@]1(C)C3CC[C@]1(C)C4=CC(=O)OC1c1ccoc1 (stereo partly drawn) | 10%
CCOc1ccc2[nH]c(C)cc(=O)c2c1 | 25µM*
Cc1c(C(=O)NC(C)CN2CCCCC2)oc2ccccc12 (stereo not drawn) | 3%
COC(=O)c1c(C)[nH]c(C)c1-c1ccccc1 | 10%

Screening results: PubChem BioAssay, National Center for Advancing Translational Sciences (NCATS)

The list is partial. The share of hits here may be higher or lower than overall.
